S aureus helic: S. aureus DNA helicase inhibition; AID 485395; 120,000 tested, 0.05% active; inhibition, %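 (tested at about 80 µM)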; purified S. aureus helicase, fluorescence unwinding assay; about half of the hits fall short of the stated cut;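 active means both duplicates at 50% or more, or one of them with a favoured structure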;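 further: 0% = mean of negative control wells and 100% = mean of positive control wells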
MgrA-DNA mod: modulators of Staphylococcus aureus MgrA DNA binding | fluorescence polarization | inhibition, %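 (about 10 µg/mL by stock and volumes)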 | 84,000 tested, 0.13% active | AID 602314;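 active means above 50% in either of two replicates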;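 further: 0% = protein plus DNA without compound and 100% = DNA alone without protein; higher means less MgrA bound to DNA so lower polarization; one replicate is shown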
* marks the source's active call; other numbers are inactive results; . = not tested or not shown; & = joins results of further samples.

Preview:
S aureus helic	MgrA-DNA mod	molecule
.	-2.1	Cc1ccc(Sc2ncccc2C(=O)NCC(=O)O)cc1
9.0	1.1	O=C(NCc1ccccc1)c1nc2ncccn2n1
-14.0	0.6	O=C(NC1CCCCCCC1)c1cccs1
-13.0	.	Cc1cc(C)n(-c2ccc(C(=O)N3CCCSC3=Nc3ccccc3)cc2)n1
-3.0	.	Cn1c(COc2ccccc2Cl)nnc1SCC(=O)N1CCNC1=O
-37.0	.	Cc1ccc(C(=O)COC(=O)C(C)N2C(=O)C3C4C=CC(C4)C3C2=O)cc1 (stereo not drawn)
.	-1.9	O=C(Nc1ccccc1)N1CCc2sccc2C1c1ccc(C(F)(F)F)cc1 (stereo not drawn)

Results, previewed entries included:
S aureus helic	MgrA-DNA mod	molecule
.	-2.1	Cc1ccc(Sc2ncccc2C(=O)NCC(=O)O)cc1
9.0	1.1	O=C(NCc1ccccc1)c1nc2ncccn2n1
-14.0	0.6	O=C(NC1CCCCCCC1)c1cccs1
-13.0	.	Cc1cc(C)n(-c2ccc(C(=O)N3CCCSC3=Nc3ccccc3)cc2)n1
-3.0	.	Cn1c(COc2ccccc2Cl)nnc1SCC(=O)N1CCNC1=O
-37.0	.	Cc1ccc(C(=O)COC(=O)C(C)N2C(=O)C3C4C=CC(C4)C3C2=O)cc1 (stereo not drawn)
.	-1.9	O=C(Nc1ccccc1)N1CCc2sccc2C1c1ccc(C(F)(F)F)cc1 (stereo not drawn)
-14.0	.	COC(=O)c1ccc(NC(=O)CN2C(=O)CCC2=O)cc1
19.0	.	O=C1NC2(CCCC2)Cc2ccccc21
-8.0	6.9	Cc1ccc(C(=O)N2CCn3c(C)ccc3C2C)cc1 (stereo not drawn)

S aureus helic	MgrA-DNA mod	molecule
-10.0	.	COC(=O)c1ccc(O)c(C(=O)OC)c1
7.0	1.1	O=C(O)[C@@H]1CSC(c2coc3ccccc3c2=O)N1 (stereo partly drawn)
.	-0.9	CCOc1cc(C2C(C(=O)OC(C)C)=C(C)NC3=C2C(=O)CC(c2ccc(OC)cc2)C3)ccc1O (stereo not drawn)
11.0	.	O=c1[nH]c(-c2cccnc2)nc2sc3c(c12)CCCC3
-4.0	.	Cc1ccc(-n2ncc3c(=O)[nH]c(SC(C)C)nc32)cc1
.	2.9	CC(C)Cc1ccc(C(C)C(=O)Nc2nn(C)c3ccccc23)cc1 (stereo not drawn)
35.0	.	COc1ccc(C2=CC(=O)C=CC2=O)cc1
8.0	-1.5	Cc1ccc(-c2cc(C(=O)c3nccn3C)c3ccccc3n2)cc1
-3.0	0.8	Cc1occc1C(=O)Nc1ccc(Oc2ccccc2)cc1
5.0	-2.7	O=C(O)CCN1CN(CCC(=O)O)c2ccccc21

An excerpt from above in order of the S aureus helic value, rising:
canonical_smiles | S aureus helic | MgrA-DNA mod
COC(=O)c1ccc(O)c(C(=O)OC)c1 | -10.0 | .
Cc1occc1C(=O)Nc1ccc(Oc2ccccc2)cc1 | -3.0 | 0.8
O=c1[nH]c(-c2cccnc2)nc2sc3c(c12)CCCC3 | 11.0 | .

New compounds follow
S aureus helic	MgrA-DNA mod	molecule
-1.0	3.7	CC(C)(C)NC(=O)c1c(N)no[n+]1[O-]
14.0	.	Cc1cc(C)n2nc(N3C(=O)c4ccccc4C3=O)nc2n1
-1.0	.	COc1ccc(NC(=O)Cn2c(=O)n(Cc3ccco3)c(=O)c3ccccc32)cc1
6.0	.	c1ccc(C2=C(c3ccccc3)N3CCN=C3S2)cc1
-20.0	.	Cc1cc(C)c(C#N)c(SCC(=O)c2c(C)[nH]c3ccccc23)n1
4.0	.	C(=N\N1CCCCC1)/c1cn(-c2ccccc2)nc1-c1cccnc1
-17.0	1.1	O=C(COc1ccc(Cl)cc1)OCC(=O)N1CCCC1
.	1.2	CC1CCC2(OC1)OC1CC3C4CC[C@H]5C[C@@H](O)CC[C@]5(C)C4CC(=O)[C@]3(C)C1C2C (stereo partly drawn)
1.0	.	CCCn1nc(Oc2nc(NCC)nc(NC(C)C)n2)ccc1=O
-10.0	-0.4	COC(=O)CC1(C)OCC2(CC=C(C)CC2)CO1 (stereo not drawn)

Single records (already shown). Values in the order: S aureus helic | MgrA-DNA mod
O=C(COc1ccc(Cl)cc1)OCC(=O)N1CCCC1 as listed: -17.0 | 1.1
CC(C)(C)NC(=O)c1c(N)no[n+]1[O-] as listed: -1.0 | 3.7

Further records:
S aureus helic	MgrA-DNA mod	molecule
8.0	.	CCN(CC)c1ccc(C2C(C#N)=C(C)NC3=C2C(=O)CC(c2ccccc2)C3)cc1 (stereo not drawn)
5.0	-1.3	Cc1cccc(N2CCN(C(c3cc4cc5c(cc4[nH]c3=O)OCO5)c3nnnn3CC3CCCO3)CC2)c1C (stereo not drawn)
13.0	.	O=C(COc1ncnc2c(Cl)cc(Cl)cc12)NCc1ccc2c(c1)OCO2
.	3.1	N/C(Cn1ccc(C(F)(F)F)n1)=N/O
-16.0	.	CN(Cc1ccccc1)C(=O)Cn1cccc1
4.0	.	CCCCN(Cc1ccco1)C(=O)c1cc2c(=O)[nH]c3ccc(C)cc3c2s1
-7.0	.	Cc1cc(C)n(CC/C(N)=N/OC(=O)c2ccccc2)n1
19.0	.	c1ccc(-n2c(Sc3cnccn3)nnc2-c2cccs2)cc1
-3.0	-2.4	CC12C(=O)N(c3cccc(C(=O)O)c3)C(=O)C1C1C=CC2C1 (stereo not drawn)
-7.0	.	CCOC(=O)CSc1nnc(CSc2nc3ccccc3s2)n1C

S aureus helic	MgrA-DNA mod	molecule
-16.0	.	N=C(N)Sc1cn(Cc2ccccc2)c2ccccc12
-323.0	.	N#CC(C#N)=c1s/c(=C/c2ccc(-c3ccc(S(=O)(=O)N4CCOCC4)cc3)o2)c(=O)n1-c1ccc(F)cc1
16.0	.	CCCCN(Cc1ccccc1)C(=O)C1CCCN1S(=O)(=O)c1cccc2nsnc12 (stereo not drawn)
6.0	-0.2	COc1ccc(N2C(=O)CSC2c2cccc(OC)c2OC)cc1 (stereo not drawn)
0.0	3.3	CCc1cc(CC)c(/C=N/NC(N)=O)c(CC)c1/C=N/NC(N)=O
14.0	.	Cn1c(=O)oc2cc(S(=O)(=O)NCc3cccn3Cc3ccc(Cl)cc3)ccc21
-2.0	-0.8	CC(=O)OCc1cnn(-c2ccccc2)n1
11.0	2.2	CCOC(=O)Nc1ccc(Cc2ccncc2)cc1
.	-1.1	O=S1(=O)CC=C(S(=O)(=O)c2ccc(Cl)cc2)C1
-8.0	.	COCc1c(C(=O)OCc2ncc(-c3ccccc3)o2)oc2ccccc12

S aureus helic	MgrA-DNA mod	molecule
.	-1.1	Cc1cc2nc(-c3ccc4c(c3)OCO4)cc(C(F)(F)F)n2n1
1.0	.	CCc1nnc2c3ccccc3nc(N3CCN(c4cccc(C)c4C)CC3)n12
16.0	-2.0	O=C(/C=C(/O)c1cccnc1)C(F)(F)F
13.0	.	CCOC(=O)c1[nH]c(C)c(C(=O)OCC(=O)N2CCCCC2C)c1C (stereo not drawn)
.	-1.3	Nc1c(Cl)cc(Cl)cc1C(=O)NO
4.0	-0.1	CCOc1cc(C(=O)N(CC)Cc2ccncc2)cc(OCC)c1OCC
.	-1.8	Cn1cc(Br)c(-c2cccc(NC(=O)CSCC(=O)O)c2)n1
.	-0.9	N#Cc1c(SCC(=O)c2ccccc2)nsc1SCC(=O)c1ccccc1
-4.0	4.5	[O-][n+]1onc2c(-c3ccccc3)nnc(-c3ccccc3)c21
.	-0.1	CO[C@@]12[C@@H]3NC3CN1C1=C(C(=O)C(N)=C(C)C1=O)[C@@H]2COC(N)=O (stereo partly drawn)

S aureus helic	MgrA-DNA mod	molecule
10.0	.	Cc1cc(C)c(C(N)=O)c(SCC(=O)c2ccccc2)n1
-12.0	0.0	CC(=O)N1C(=S)NC(=O)/C1=C\c1ccc(C(C)C)cc1
-10.0	.	Cc1csc(=O)n1CC(=O)OCCCn1c(=O)[nH]c2ccccc21
.	0.3	O=C(Nc1ccc(N=Cc2cccs2)cc1)c1ccccc1O
3.0	-0.7	CC1Cc2cc(C(=O)NC3CCCCC3)ccc2O1 (stereo not drawn)
11.0	-1.8	COC(=O)C(C)N(C(=O)c1c(F)cccc1F)c1c(C)cccc1C (stereo not drawn)
11.0	-10.8	O=C(NCCc1ccccc1)C1CCN(C(=O)c2ccco2)CC1
6.0	.	O=C(CCC(=O)N1Cc2ccccc2Oc2ncccc21)N1CCCC1
17.0	.	COc1ccc(C(=O)N=Nc2c(O)n(CN3CCN(C)CC3)c3ccccc23)cc1OC
-5.0	.	S=C(S)N1CCCC1

S aureus helic	MgrA-DNA mod	molecule
6.0	1.2	COc1cccc(NC(=O)CSc2nncn2N)c1
.	3.9	c1ccc2c3c([nH]c2c1)CCCCCCCCCC3
.	0.7	Cc1ccc(NS(C)(=O)=O)cc1NC(=S)Nc1ccc(F)cc1
.	-1.2	N#Cc1cccn1-c1ncc(C(F)(F)F)cc1Cl
.	-1.5	CCOc1nc2ccc(C)cc2c(=O)o1
.	1.0	CCOC(=O)CC1=C(C(=O)OCC)C(c2ccc(OC)cc2)C(C#N)=C(N)O1 (stereo not drawn)
4.0	.	Cc1ccc(Cl)cc1N1CCN(C(=O)C2CCCN(S(=O)(=O)c3cccc4nonc34)C2)CC1 (stereo not drawn)
.	-0.8	Cc1ccc2nc[nH]c(=O)c2c1
23.0	5.5	Cc1cccc(N2CCN(C(=O)N(C)C)CC2)c1C
8.0	.	Cc1cc(COC(=O)c2ccccc2Sc2ccccc2C#N)no1

S aureus helic	MgrA-DNA mod	molecule
.	2.9	COC(=O)C[C@H](NC(=O)[C@H](C)NC(=O)[C@@H](NC(=O)OCc1ccccc1)C(C)C)C(=O)CF
10.0	-2.7	Cc1cc(N2CCC3CCCC(C2)N3Cc2ccccc2)n2c(n1)nc1ccccc12 (stereo not drawn)
14.0	.	CC(C)c1ccc(Cc2nnc(NN3CCOCC3)[nH]c2=O)cc1
.	1.6	C/C(=N\O)c1ccccc1O
-31.0	.	COc1ccc(NC2=CC(=O)CCC2)c(OC)c1
12.0	4.7	CC(C)C(=O)N1CCCCCC1
-12.0	.	COc1ccc(NS(=O)(=O)c2ccc3oc(SCC(=O)N4CCc5ccccc5C4)nc3c2)cc1
-3.0	-2.4	O=C1CC(c2ccco2)CC(O)=C1C=NC1CCCCC1N=CC1=C(O)CC(c2ccco2)CC1=O (stereo not drawn)
19.0	2.6	Cc1ccc(-c2nc3ccccc3s2)cc1
12.0	.	CC(C)c1ccc2c(c1)C1(N=C(N)Nc3nc4ccccc4n31)C(=O)N2 (stereo not drawn)

S aureus helic	MgrA-DNA mod	molecule
.	-4.2	Cn1nc(C(C)(C)C)c(NC(=O)c2cccnc2)c1C(C)(C)C
10.0	-0.7	O=C(NCc1nnc(SCC(=O)N2CCCCC2)o1)c1cccs1
11.0	0.2	CCOc1ccc(S(=O)(=O)NCCSc2ccccc2)cc1
-17.0	3.5	CCc1ccc(C(=O)Nc2cc(C)nn2-c2nc3ccccc3s2)cc1
25.0	.	C=CCN(CC=C)C(C)C(=O)Nc1cc2oc3ccccc3c2cc1OC (stereo not drawn)
-5.0	.	COc1ccccc1NC(=O)CSc1ncnc2ccccc12
-60.0	3.5	C=CCN1C(=O)/C(=C/c2c(NCC)nc3ccccn3c2=O)SC1=S
6.0	.	O=C1CCCN1C(=O)COc1ccc(Cl)c2ccccc12
.	-2.0	COc1cc(C(F)(F)F)cc(C(F)(F)F)c1C(=O)NCc1cccs1
-11.0	.	COC(=O)CS(=O)(=O)c1cc(Br)cc2c1N(C(C)=O)CC2

S aureus helic	MgrA-DNA mod	molecule
.	0.1	CCOC(=O)NC(=S)NCCc1ccccn1
7.0	.	CCc1nc(Cc2nc3ccccc3[nH]2)no1
.	2.5	Cc1cc(C)c(SCC(=O)NCc2ccc3c(c2)OCO3)c(C)c1
11.0&7.0	-1.0&5.5	CC1(C)CC(=O)C2=C(C1)Nc1ccccc1NC2c1ccccc1 (stereo not drawn)
5.0	.	COc1ccc(-n2cnc3c(cnn3CCC#N)c2=N)cc1
-12.0	.	O=C(O)CCC(=O)Nc1ccc(Cl)cc1
11.0	0.6	COc1cc(/C=C2/SC(=S)NC2=O)ccc1OC(=O)c1cccc(C)c1
-13.0	.	CC(C)(C)c1cc2nc(C(F)(F)F)cc(NN)n2n1
-3.0&-4.0	.	CC1CCc2ccccc2N1S(=O)(=O)c1cccs1 (stereo not drawn)
11.0	.	CN(CCOc1ccccc1)C(=O)C1CCN(S(=O)(=O)c2cccs2)CC1

S aureus helic	MgrA-DNA mod	molecule
-2.0	-0.2	O=C(CCSc1nccn1Cc1ccccc1)NC1CCCCC1
4.0	-1.1	CCOC(=O)c1cc2oc(C)cc2n1CC(=O)NC1CC1
.	2.5	N#Cc1ccc(C=Nc2cccc(-c3ncon3)c2)cc1
-5.0	.	O=C(CN1CCCCCC1=O)NCCc1ccc2c(c1)OCCO2
.	7.5	CC(=O)c1ccc(N2C(=O)CSCC2=O)cc1
9.0	.	CC(C)NC(=O)CSc1n[nH]c(-c2ccc(Br)cc2)n1
-3.0	-4.3	CC1C/C(=C\c2ccccn2)C(=O)/C(=C/c2ccccn2)C1 (stereo not drawn)
19.0	.	CC1(C)C(=O)OC(c2ccccc2)C(C)(C)C1=O (stereo not drawn)
-5.0	.	CNC(=O)COC(=O)c1ccc(-c2cccc(C(F)(F)F)c2)o1
.	2.6	COCCOc1ccccc1NC(=S)NNC(=O)c1ccc([N+](=O)[O-])cc1
.	-1.6	COC(=O)c1cc(S(=O)(=O)N2CCOCC2)oc1C
.	1.6	CCOC(=O)c1ccccc1Sc1ccccc1C(=O)OC
13.0	1.0	COc1ccc(CC2(C)OC(c3ccncc3)=NN2C(C)=O)cc1 (stereo not drawn)

A portion of the library; the hit share may differ from the screen's.
